# VDR inh: blocks the human vitamin D receptor; P11473; VDR-SRC2-3 peptide fluorescence polarization, 2 h; Potency, µM, for inactives: max response, negative = inhibition, actives largely listed as inhibitors; actives 0.93% (n = 400,000); active = well fitted inhibition curve with a large enough effect; inconclusive = small, poorly fitted or top-dose-only effect, or another doubt; inactive = no such curve, though single readings can be large or run the other way; also: series mostly up to about 120 µM
# Target sequence (P11473 whole entry, looked up): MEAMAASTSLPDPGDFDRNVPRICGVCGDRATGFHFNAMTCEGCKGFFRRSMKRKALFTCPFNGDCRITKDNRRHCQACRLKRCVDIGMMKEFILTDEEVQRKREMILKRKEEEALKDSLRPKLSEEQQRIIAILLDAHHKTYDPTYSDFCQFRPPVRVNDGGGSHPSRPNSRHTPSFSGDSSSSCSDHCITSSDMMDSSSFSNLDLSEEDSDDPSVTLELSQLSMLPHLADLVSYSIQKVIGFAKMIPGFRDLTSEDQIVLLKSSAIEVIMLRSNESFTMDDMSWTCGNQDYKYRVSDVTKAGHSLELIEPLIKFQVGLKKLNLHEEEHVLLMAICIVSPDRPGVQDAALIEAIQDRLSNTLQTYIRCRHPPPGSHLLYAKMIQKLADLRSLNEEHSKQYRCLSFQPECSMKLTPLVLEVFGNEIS
#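 Reagent solutions, kept cold and dark, are dispensed first; compounds are then pinned in at 23 nl, plates briefly spun, and incubated 2 h at ambient temperature. Inhibition of VDR–SRC2-3 peptide binding is read by fluorescence polarization.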
# * marks the source's active call; other numbers are inactive results; ? = inconclusive; & = joins results of further samples; [ ] = another dose, or the depositor's remark. % is scaled to controls: 0 for no effect and ±100 for the full control effect; potency is read from the fitted curve at half-maximal effect. These rows are one share of the data (hit frequency here may not be typical).
# The first six compounds (preview)
entry	Compound	VDR inh
1	Cc1sc2ncnc(NCC(c3ccco3)N3CCCC3)c2c1C (configuration not stated)	1%
2	COc1cccc(-c2ccc(SCc3ccccn3)nn2)c1	-12%
3	O=C(O)CCNC(=O)/C(=C\c1ccco1)NC(=O)c1ccco1	12%
4	C=CCNC1=C(Cl)C(=O)c2ccccc2C1=O	-7%
5	Cc1ccc(CNS(=O)(=O)c2ccc3c(c2)CC(C)N3C(=O)C2CCC2)cc1 (configuration not stated)	4%
6	CC(C)(O)CN(C(=O)c1ccccc1)C1CCCCC1	2%

# All compounds of this part, from the first entry:
entry	Compound	VDR inh
1	Cc1sc2ncnc(NCC(c3ccco3)N3CCCC3)c2c1C (configuration not stated)	1%
2	COc1cccc(-c2ccc(SCc3ccccn3)nn2)c1	-12%
3	O=C(O)CCNC(=O)/C(=C\c1ccco1)NC(=O)c1ccco1	12%
4	C=CCNC1=C(Cl)C(=O)c2ccccc2C1=O	-7%
5	Cc1ccc(CNS(=O)(=O)c2ccc3c(c2)CC(C)N3C(=O)C2CCC2)cc1 (configuration not stated)	4%
6	CC(C)(O)CN(C(=O)c1ccccc1)C1CCCCC1	2%
7	CN1CCN(C(=O)/C(=C/c2cccs2)NC(=O)c2ccco2)CC1	15%
8	O=C(CSc1n[nH]c(C2CCCC2)n1)NC1CCCC1	-19%
9	CC1(C)Cc2c(sc3ncnc(N)c23)CO1	-6%
10	C=C1C(=O)OC2C1C(OC(=O)C(C)=CC)CC(=C)C1C(O)C3OC3(C)C21O (configuration not stated)	-28%
11	Cc1ccc(C(=O)NCCCc2ccccc2)c(C)c1	0%
12	Cc1oc(-c2cccc(Cl)c2)nc1CN1CCC(C(=O)NCC2CCCO2)CC1 (configuration not stated)	11%
13	CC(=O)Nc1ccc(S(=O)(=O)NNC(=O)CCc2ccccc2)cc1	-6%
14	COC(=O)c1ccc(NC(=O)CN2CCN(c3ccccc3)CC2)cc1	-4%
15	O=C(COc1ccc(S(=O)(=O)N2CCOCC2)cc1)NCc1ccccc1	-7%
16	CCOC(=O)c1nnc(-c2ccc(C)cc2)nc1Sc1cccc(Cl)c1	?
17	Cc1ccc(NC(=O)CCS(=O)(=O)c2ccc3c(c2)NC(=O)C(C)S3)nc1 (configuration not stated)	-4%
18	CC(=O)OC[C@H]1O[C@@H](Sc2cccc3cccnc23)[C@H](OC(C)=O)[C@@H](OC(C)=O)[C@@H]1OC(C)=O	0%
19	COc1cc(NC(=O)CCn2c(-c3ccccc3)cc(C(C)=O)c2C)cc(OC)c1	-10%
20	c1ccc2c(N3CCCCCC3)nc(-c3ccncc3)nc2c1	-1%
21	COc1ccc(C(c2oc(CO)cc(=O)c2O)c2oc(CO)cc(=O)c2O)cc1OC	3%
22	CSCC[C@H](NC(=O)C1CCN(S(=O)(=O)c2ccc(C)cc2C)CC1)c1nc2ccccc2[nH]1	0%
23	CN(C)S(=O)(=O)c1cccc(-c2nn(-c3ccccc3)cc2/C=C(\C#N)c2nc3ccccc3[nH]2)c1	0%
24	CC(=O)O[C@@H](C)C[N+](C)(C)C	-3%
25	CN(/C(=N\S(=O)(=O)c1ccccc1)c1ccccc1)c1ccc(O)cc1	-5%
26	CCOC(=O)C(=O)/C(=C\N(C)C)c1onc(-c2c(F)cccc2Cl)c1C(=O)OC	-6%
27	Cc1cc([N+](=O)[O-])nn1CCCC(=O)Nc1cc(Oc2ccc(F)cc2)cc([N+](=O)[O-])c1	-27%
28	COc1ccc(-c2csc(NC(=S)NC(=O)c3cccs3)n2)cc1Br	-12%
29	COC(=O)c1ccc(NS(=O)(=O)NC(=O)c2cn(C)c3ccccc23)cc1	-8%
30	O=C(NCCC1=CCCCC1)C(=O)NCC(c1ccco1)N1CCN(c2ccccc2F)CC1 (configuration not stated)	-1%
31	O=C(CSc1nc2ccccc2nc1Cc1ccc(Cl)cc1)N1CCCc2ccccc21	3%
32	COc1cccc(NC(=O)Nc2ccc3nsnc3c2)c1	-5%
33	O=C(CC1Oc2ccccc2NC1=O)NCc1ccccc1 (configuration not stated)	?
34	CCOC(=O)/C(=C/c1ccc(Cl)cc1)NC(=O)c1ccco1	-16%
35	Cc1ccc(/C=C/C(=O)NC(=S)N2CCN(C)CC2)cc1	-4%
36	CSC[C@H](NC(=O)COc1cc2c(c3oc(=O)c(C)c(C)c13)CCC(C)(C)O2)C(=O)O	-19%
37	CN(C)CC(=O)Nc1cc(C(F)(F)F)ccc1Cl	-2%
38	Cc1ccccc1NC(=O)c1nn(C)c2c1CS(=O)(=O)c1ccccc1-2	-17%
39	CC(C)(C)[C@H]1C=C(C(N)=O)O[C@@H](OCc2ccc(CO)cc2)C1	-6%
40	O=c1oc2ccccc2c(NC(c2ccccc2)c2ccccc2)c1[N+](=O)[O-]	4%

# Molecules listed so far containing fluorine, in the order listed:
entry	Compound	VDR inh
26	CCOC(=O)C(=O)/C(=C\N(C)C)c1onc(-c2c(F)cccc2Cl)c1C(=O)OC	-6%
27	Cc1cc([N+](=O)[O-])nn1CCCC(=O)Nc1cc(Oc2ccc(F)cc2)cc([N+](=O)[O-])c1	-27%
30	O=C(NCCC1=CCCCC1)C(=O)NCC(c1ccco1)N1CCN(c2ccccc2F)CC1 (configuration not stated)	-1%
37	CN(C)CC(=O)Nc1cc(C(F)(F)F)ccc1Cl	-2%

# (list continues)
nr	SMILES	VDR inh
41	Cc1cc2cc(CNC(=O)CCC(=O)O)ccc2[nH]1	-16%
42	CCN1CCN(C(=O)C2CCC(CNS(=O)(=O)c3ccc(NC(C)=O)cc3)CC2)CC1 (configuration not stated)	3%
43	N#Cc1nc(Cc2cccc3ccccc23)oc1NCc1ccco1	16%
44	COc1cc(C2Oc3ccccc3C=C2[N+](=O)[O-])cc(OC)c1OC (configuration not stated)	22µM*
45	COCC1CCN(C(=O)c2cc(COc3ccc(OC)c4ccccc34)on2)C1 (configuration not stated)	8%
46	Cc1nc(N2CCC(C)CC2)c2nnn(Cc3ccccc3)c2n1	0%
47	O=C(CCn1c(=S)[nH]c2ccccc2c1=O)Nc1cccc(Cl)c1	15%
48	Cc1ccc(CNC(=O)c2nn(C)c3c2CS(=O)(=O)c2ccccc2-3)cc1	-26%&0%
49	COc1ccc(C2=NOC3(CC(=O)N(c4ccc(F)cc4)C3=O)C2)cc1 (configuration not stated)	18%
50	CCOc1ccccc1C(=O)N[C@H](C(=O)OCc1cc(=O)oc2cc(C)ccc12)C(C)C	-10%
51	CC(=O)N1CCc2cc(S(=O)(=O)N3CC(C)CC(C)C3)ccc21 (configuration not stated)	9%
52	COc1ccc(C)cc1N/C(N)=N/c1nc(C)cc(C)n1	-11%
53	CC(C)=CCC/C(C)=C/CNC(=O)C[C@H]1C[C@H](C(=O)N(C(C)C)C(C)C)[C@@]2(C)c3[nH]c4cc(-c5ccco5)ccc4c3CCN2C1=O	-25%
54	CN(C)c1ccc(-c2nc3ccccc3c(=O)[nH]2)cc1	9%
55	CC(C)(C)OC(=O)N(CCc1ccccc1)Cc1cccc(OCc2cccc(NC(=O)C3CCCC3)c2)c1	2%
56	Cc1ccc(/C=N/NC(=O)CCCOc2ccc(Cl)cc2Cl)cc1	-1%
57	Cc1cc(C)n(-c2ccc(C(=O)OCC(=O)c3ccc(Br)s3)cc2)n1	34%[activator]
58	CC[C@]1(O)C[C@@H]2CN(CCc3c([nH]c4ccccc34)[C@](C(=O)OC)(c3cc4c(cc3OC)N(C=O)[C@H]3[C@@](O)(C(=O)OC)[C@H](C(=O)OC)[C@@]5(CC)C=CCN6CC[C@]43[C@H]65)C2)C1	-6%
59	O=C(NCCCN1CCN(c2cccc(Cl)c2)CC1)c1ccc(N2CCCC2=O)cc1	22%
60	O=C(Nc1cccc(F)c1)c1ccc2c(c1)OCCO2	6%
61	Cn1c(CNC(=O)CNC(=O)c2cccc(Cl)c2)cc(=O)n(C)c1=O	7%
62	COCCn1c(C)cc(/C=C2/SC(=O)N(C(C)C(=O)OC)C2=O)c1C (configuration not stated)	-9%
63	COc1ccc(-c2coc3cc(OC(C)=O)c(OC)cc3c2=O)cc1	2%
64	O=C(O)c1cc(C(=O)C2CCCCC2)c[nH]1	-18%
65	COc1cc(C2N(C)C(=O)c3ccccc3N2C)ccc1O (configuration not stated)	25%
66	Cc1ccccc1-c1cccc([C@@H]2C[C@H]3[C@H](CON3C)CN2S(=O)(=O)c2ccccc2C)c1	-12%
67	O=C(COC(=O)CCC(=O)c1cccs1)Nc1ccc(F)c(F)c1F	-2%
68	COc1ccccc1NC(=O)CSc1nc2[nH]ncc2c(=O)[nH]1	21%
69	CCOc1ccc(S(=O)(=O)Nc2ccc3c(c2)N(C(C)=O)CCC3)cc1	2%
70	CCCCN(C)C(=O)c1cc2cc3ccc(OC)cc3nc2o1	-15%
71	O=C(Nc1nccs1)c1ccc2ccccc2n1	1%
72	CC1Oc2ccccc2N(CC(=O)N2CCc3ccccc32)C1=O (configuration not stated)	-3%
73	COc1ccc(OC)c(S(=O)(=O)NC(C)(C)C)c1	12%
74	Cn1cnnc1SCc1ccc(C(=O)n2ncc(C#N)c2N)cc1	-23%
75	O=C(c1ccc(N2CCCC2=O)cc1)N1CCN(c2ccccc2Cl)CC1	-11%
76	CC1CCC(NC(=O)C2CCN(S(=O)(=O)c3ccc4nc5c(c(C(=O)O)c4c3)CC(C)CC5)CC2)CC1 (configuration not stated)	3%
77	Cc1oc(-c2ccc(C(=O)NCc3ccccc3F)cc2)nc1COc1ccccc1	13%
78	CCSC1=N/C(=C\c2ccc(C)s2)C(=O)S1	-6%
79	N#CCC(=O)Nc1ccc(C(=O)OCC(=O)Nc2cccc(C(F)(F)F)c2)cc1	16%
80	N=c1n(CCN2CCCCC2)c2ccccc2n1CC(O)c1ccco1 (configuration not stated)	1%
81	Cc1ccc(S(=O)(=O)N2CCN(c3ccc([N+](=O)[O-])c(Sc4nncn4C)c3)CC2)cc1	-4%
82	CC1Cc2ccccc2N1C(=O)CSc1nnc(C2CC2)n1C (configuration not stated)	?
83	CC(C)Oc1cccc(C(=O)Nc2ccc3oc(-c4cccc(Cl)c4)nc3c2)c1	-11%
84	C=CCN1C(=O)c2ccc(C(=O)NCC(=O)Nc3c(C)cc(C)cc3C)cc2C1=O	-12%
85	COCCCNC(=O)c1c[nH]c2ccc(S(=O)(=O)N3CCC4(CC3)OCCO4)cc2c1=O	4%
86	CSc1ncnc2c1ccn2CC(=O)Nc1ccc(C)c(C)c1	-13%
87	O=C(NNC(=O)C1CCN(Cc2ccc(F)cc2Cl)CC1)Nc1ccc([N+](=O)[O-])cc1	10%
88	O=C(NCC1CCCCC1)C1CCN(C(=O)NC2CCCCC2)CC1	-5%
89	Cc1ccc(S(=O)(=O)N(CCC#N)CCN2CCCC2)cc1	22%
90	COc1ccc(CCn2c(=N)c(C(=O)NCCN3CCOCC3)cc3c(=O)n4cccc(C)c4nc32)cc1OC	-2%
91	CCc1ccc(OCC(=O)N2CC(C(=O)OC)Oc3ccccc32)cc1 (configuration not stated)	-20%
92	O=C(COc1ccc(-n2cnnn2)cc1)Nc1cccc(Cl)c1Cl	2%
93	O=C(NCCN1CCN(c2ccccc2)CC1)c1cccc(Br)c1	-3%
94	NCCCC[C@H](NC(=O)[C@H](CCCN=C(N)N)NC(=O)[C@H](CO)NC(=O)[C@H](CCCN=C(N)N)NC(=O)[C@@H](N)Cc1ccc(O)cc1)C(=O)N[C@@H](Cc1ccc(O)cc1)C(=O)N[C@@H](CO)C(=O)N[C@@H](CO)C(=O)N[C@@H](Cc1c[nH]c2ccccc12)C(=O)N[C@@H](Cc1ccc(O)cc1)C(=O)O	2%
95	Cc1ccc(NC2SC(=O)N(CC(=O)O)C2=O)cc1 (configuration not stated)	6%
96	Cc1nc2ccccc2c(=O)n1NC(=O)/C=C/c1ccc(Br)cc1	6%

# Screening results as filed in PubChem.
